PKD1 kinase inh – inhibitors of human PKD1 kinase | Q15139 | PKD1 kinase fluorescence polarization assay | inhibition, %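 (about 10 µM by stock and volumes)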 | 200,000 compounds, 0.056% hits | AID 797;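 active means inhibition of 50% or more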;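 further: controls were vehicle for no effect and a reference inhibitor for full effect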
Target sequence (Q15139 whole entry, looked up): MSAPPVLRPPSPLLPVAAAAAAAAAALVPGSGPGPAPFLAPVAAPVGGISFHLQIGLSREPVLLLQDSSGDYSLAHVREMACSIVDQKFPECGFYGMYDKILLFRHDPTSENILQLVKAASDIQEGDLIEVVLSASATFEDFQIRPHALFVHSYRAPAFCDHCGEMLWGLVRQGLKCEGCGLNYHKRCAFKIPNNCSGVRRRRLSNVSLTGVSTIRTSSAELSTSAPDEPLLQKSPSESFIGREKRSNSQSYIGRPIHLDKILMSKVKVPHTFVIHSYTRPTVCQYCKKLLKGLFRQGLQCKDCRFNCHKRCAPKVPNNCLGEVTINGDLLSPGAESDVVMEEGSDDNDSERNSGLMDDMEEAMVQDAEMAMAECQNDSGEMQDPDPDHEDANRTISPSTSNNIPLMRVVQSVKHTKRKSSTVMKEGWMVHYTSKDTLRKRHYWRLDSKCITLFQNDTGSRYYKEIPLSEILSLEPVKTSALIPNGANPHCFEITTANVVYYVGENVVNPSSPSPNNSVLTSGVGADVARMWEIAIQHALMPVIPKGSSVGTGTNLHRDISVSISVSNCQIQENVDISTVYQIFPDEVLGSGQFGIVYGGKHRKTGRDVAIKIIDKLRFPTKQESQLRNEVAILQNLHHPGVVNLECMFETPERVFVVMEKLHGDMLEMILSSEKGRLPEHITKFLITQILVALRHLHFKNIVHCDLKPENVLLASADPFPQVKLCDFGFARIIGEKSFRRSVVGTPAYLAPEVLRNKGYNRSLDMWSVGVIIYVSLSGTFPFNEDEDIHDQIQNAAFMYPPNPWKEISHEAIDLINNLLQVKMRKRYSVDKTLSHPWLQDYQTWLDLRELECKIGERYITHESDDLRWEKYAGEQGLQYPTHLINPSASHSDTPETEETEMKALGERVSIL
GALR2 agonist – activates the human galanin receptor 2 | GALR2-expressing cells, agonist activation read-out | activation, %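 (tested at 5 µM)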 | 140,000 compounds, 0.48% hits;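 active means above mean plus 3 SD of all compounds, about 5% in these data, not always enough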;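 further: 0% = vehicle buffer wells and 100% = reference agonist at full effect; tested in CHO reporter cells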
Insulin prom inh – TRM-6 insulin promoter activity inhibition. 130,000 compounds, 0.9% hits. TRM-6 cells (human fetal islet line), insulin promoter-eGFP reporter, imaging; reporter expression induced with tamoxifen. inhibition, % at 2 µM;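 active means inhibition above the mean plus 3 SD, with well images judged a real hit on visual review, cut at about 60% in these data, passing the limit was not always enough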
HSV augment – increases HSV replication in cells. 220,000 compounds, 0.005% hits. AID 1956. HSV replication augmentation in cells, fold increase. maximum fold increase;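 active means peak rise of 1.5-fold or more in the series; tested in PC3 cells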;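 further: first round at 10 µM; read as green reporter fluorescence; hits show the peak of a series up to 25 µM; 1 = signal of infected wells without compound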
RGS16-Gao – regulators of human RGS16-Galphao interaction; O15492+P09471; bead-based flow cytometry RGS16-Galphao binding, fluorescence; actives lie on both sides; binding response (% of control), % at 10 µM; 220,000 compounds, 0.38% hits; AID 1441;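 active means below 25% or above 175%, edge rows of some plates excepted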;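 further: Galphao activated by GDP with aluminum fluoride before binding; 100% = wells without compound and 0% = beads without RGS; some results beyond the cut were filed as inactive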
Insulin prom inh cell count – further read-out of Insulin prom inh, marked with its call; normalized cell count, %; measured here: cell count, toxicity; reference of the scale not given here;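 cells exposed to compound for 48 h; stained nuclei by imaging scaled within each plate; lower means fewer cells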
HSV augment primary fold – further read-out of HSV augment, marked with its call; fold increase; compound at 10 µM; measured here: primary screen fold increase 10 uM; tested in PC3 cells;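 GFP signal in the first replicate; 1 = infected wells without compound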
Active calls of the source: *; i = inactive; x = not tested or not shown. This is a random part of the collection. Share with any hit: about 1.2%.

SMILES	PKD1 kinase inh	GALR2 agonist	Insulin prom inh	Insulin prom inh cell count	HSV augment	HSV augment primary fold	RGS16-Gao
O=C(CSCc1ccccc1)Nc1ccc2c(c1)C(=O)NC2=O	14	x	6	99	i	1.1	102
Cc1ccc(C(=O)Nc2ncc(C)s2)o1	0	-1.2	-10	77	i	1	102
CCOC(=O)c1sc(NC(=O)CSc2n[nH]c(CC)n2)nc1C	4	x	x	x	i	1.1	110
O=C(NCc1nnc(SCC(=O)N2CCC(Cc3ccccc3)CC2)o1)c1ccco1	0	x	x	x	i	0.84	105
O=C(NC1CCCCC1)C(c1cccnc1)N(C(=O)CCl)c1ccccc1Cl (stereo not drawn)	-8	0.4	0	101	i	0.81	104
CC1(C)OC(=O)C(=Cc2ccc[nH]2)C(=O)O1	x	x	x	x	i	1.1	105
CCCCSc1cnn(-c2ccccc2)c(=O)c1SCCCC	0	-1.1	33	72	i	0.9	99
COc1ccc(C(=O)O/N=C(\N)Cc2ccc([N+](=O)[O-])cc2)c(OC)c1	x	x	x	x	i	0.77	116
O=C(COc1cccnc1[N+](=O)[O-])c1ccc(Cl)s1	x	x	x	x	i	1.2	99
Cc1ccc(CCNC(=O)C2CCN(S(=O)(=O)c3cccc4nonc34)CC2)cc1	-6	-3.1	39	67	i	1	111
CC1=C(C(=O)OCC2CCCO2)C(c2ccccc2)NC(=O)N1 (stereo not drawn)	-14	-3.4	x	x	i	0.94	98
[O-]/[N+](=C\c1ccc(F)cc1)c1ccccc1	-2	-4.9	14	149	i	0.74	94
CC1CCN(S(=O)(=O)c2ccc(Cl)cc2Br)CC1	0	-2.2	x	x	i	0.92	108
CCCn1c(CN2CCN(C)CC2)nc2ccccc21	2	-2.8	-54	83	i	1.1	14*
COC(=O)C1C(c2ccccc2)NC(=O)NC1(O)C(F)(F)Cl (stereo not drawn)	-5	x	x	x	i	0.96	98
O=C(Nc1ccccc1)NC1CCN(Cc2ccccc2)CC1	-6	x	-68	57	i	1.1	104
O=c1cc(CNCCCO)c2ccccc2[nH]1	1	0.3	-6	95	i	0.91	101
O=C(OCc1nnc(-c2ccccc2)o1)c1cc(S(=O)(=O)N2CCOCC2)c(Cl)cc1Cl	-2	-3.3	-107	176	i	0.97	106
CNC(=O)CSc1nnc(C2CC2)n1-c1ccccc1	7	x	x	x	i	1	105
Nn1c(=O)c2ccccc2n2c(SCc3ccccc3)nnc12	-6	-0.5	-14	121	i	0.99	103
Cc1noc(C)c1COc1ccc(C(=O)NCCc2ccccn2)cc1	-1	x	x	x	i	0.96	96
O=C(N1CCCC1)C12CC3CCC(CC(C3)C1)C2	0	x	x	x	i	1.1	100
O=P(O)(O)COc1ccccc1P(=O)(c1ccccc1)c1ccccc1	-9	-1.1	x	x	i	0.96	90
CCSc1nnc(NC(=O)Cc2cccc(OC)c2)s1	-5	0.2	-3	62	i	0.99	111
COc1ccc(-c2nnc(NC(=O)C3=COCCO3)o2)cc1	-5	-2.1	50	152	i	0.97	112
COC(=O)CN(c1cc(C(F)(F)F)ccc1Cl)S(C)(=O)=O	-10	-2.3	-43	96	x	x	99
COc1cccc(C(C(=O)NC(C)(C)C)N(CCC(C)C)C(=O)CCC(=O)Nc2cc(C)on2)c1OC (stereo not drawn)	-12	x	x	x	i	1	109
Cc1c(C(=O)Nc2cccc(Cl)c2)c2ccccn2c1CCc1ccncc1	-3	-2.1	x	x	i	1.2	104
COCn1c(COc2ccccc2)nc2ccccc21	-6	-2.2	x	x	i	0.97	103
Cc1cc(N2CCN(C(c3ccccc3)c3ccccc3)CC2)n2ncnc2n1	16	-1.3	13	104	i	1	x

Limited to RGS16-Gao and PKD1 kinase inh, for some of the entries so far:
SMILES	RGS16-Gao	PKD1 kinase inh
COc1ccc(-c2nnc(NC(=O)C3=COCCO3)o2)cc1	112	-5
COC(=O)CN(c1cc(C(F)(F)F)ccc1Cl)S(C)(=O)=O	99	-10
COc1cccc(C(C(=O)NC(C)(C)C)N(CCC(C)C)C(=O)CCC(=O)Nc2cc(C)on2)c1OC (stereo not drawn)	109	-12
Cc1c(C(=O)Nc2cccc(Cl)c2)c2ccccn2c1CCc1ccncc1	104	-3
COCn1c(COc2ccccc2)nc2ccccc21	103	-6
Cc1cc(N2CCN(C(c3ccccc3)c3ccccc3)CC2)n2ncnc2n1	x	16

RGS16-Gao: entries above that show a hit
molecule | PKD1 kinase inh | GALR2 agonist | HSV augment | HSV augment primary fold | RGS16-Gao
CCCn1c(CN2CCN(C)CC2)nc2ccccc21 | 2 | -2.8 | i | 1.1 | 14*

More compounds:
SMILES	PKD1 kinase inh	GALR2 agonist	Insulin prom inh	Insulin prom inh cell count	HSV augment	HSV augment primary fold	RGS16-Gao
CN(C)c1nc(N/N=C/c2c[nH]c3ccccc23)nc(N2CCOCC2)n1	3	x	x	x	i	0.92	99
O/N=C(/CCc1ccccc1)c1ccc2c(c1)OCCO2	-2	x	37	78	i	1.2	102
Cc1cc(C)c2nc3sc(C(=O)N4CCOCC4)c(N)c3cc2c1	x	x	x	x	i	0.94	98
CCN(CC)S(=O)(=O)c1cc(NC(=O)COC(=O)CCC(=O)c2cccs2)ccc1C	-15	x	-14	157	i	1	103
CCOc1cccc(/C(O)=C2/C(=O)C(=O)N(CCOC)C2c2ccco2)c1 (stereo not drawn)	0	0.3	-23	257	i	0.95	102
O=C(NCC1CCCO1)c1cccc(NC(=O)c2ccco2)c1 (stereo not drawn)	-6	0.6	32	83	i	0.97	96
CCCCNc1nc(-c2ccccc2)cc(C(F)(F)F)c1C(N)=O	2	-0.9	-128	77	i	0.89	112
O=C(N/N=C/c1c[nH]c2ccccc12)c1cc(-c2ccccc2)n[nH]1	3	0.8	63	117	i	0.88	93
Cc1cc(C)cc(NC(=O)C2CCN(S(=O)(=O)c3c(C)n[nH]c3C)CC2)c1	-5	-1.7	x	x	i	1.1	105
CC(C)Cc1ccc(C(C)C(=O)Nc2nccs2)cc1 (stereo not drawn)	-1	0.8	-23	104	i	0.84	102
Nc1cc(N)nc(SCC(=O)N2CCc3ccccc32)n1	-6	-1.7	35	45	i	1	100
CC(=O)Cc1nsc(NC(=O)c2oc(-c3ccccc3Cl)cc2C)n1	2	x	-14	104	i	0.89	110
O=C(NCCCCNC(=O)c1cccs1)c1cccs1	-6	0.8	0	99	i	0.98	117
COC(C(=O)Nc1ccc(F)c(F)c1)c1ccccc1 (stereo not drawn)	1	-2.7	-23	39	i	0.86	x
O=C(NNC(=O)c1ccccc1C(=O)O)c1ccc(-c2ccccc2)cc1	4	x	-100	77	i	1.1	101
CCOc1ccc(CN(C)CC(=O)Nc2ccc3c(c2)CCC3)cc1OC	3	x	-25	116	i	0.91	107
COc1ccc(C2C(C(C)=O)=C(O)C(=O)N2c2nccs2)c(OC)c1 (stereo not drawn)	2	x	x	x	i	1.2	102
CC1Cc2ccccc2N1C(=O)CN1C(=O)C(=O)N(Cc2ccccc2)C1=O (stereo not drawn)	-2	-1.5	16	102	i	0.91	105
NC(=O)COC(=O)CC12CC3CC(CC(C3)C1)C2	-2	x	x	x	i	0.99	102
CCNc1nc(NC(C)(C)C)nc(SC(C(C)=O)C(C)=O)n1	-6	-1.7	39	109	i	0.46	99
CC1(C)COC(/C=C/c2cccc([N+](=O)[O-])c2)=N1	0	x	29	53	i	0.66	102
COc1ccc(NC2=NCC(=O)N2Cc2cccs2)cc1	-11	-1.8	0	139	i	0.9	102
Cc1ccc(NC(=O)CN(C)S(=O)(=O)c2cccc3cccnc23)c(C)c1	x	x	x	x	i	0.89	99
COc1ccc(-c2nc(CS(=O)CC(=O)NCc3ccc(Cl)cc3)c(C)o2)cc1 (stereo not drawn)	-9	-2.2	x	x	i	0.84	101
COc1cc(/C=N/OCC(=O)Nc2ccc(OC(F)F)cc2)ccc1OCc1ccccc1	-4	-1.0	23	89	i	0.84	126
CCOC(=O)Cc1ccc(NC(=O)c2ccccc2Br)cc1	-6	x	x	x	i	1	101
CCN(C(C)=O)c1cccc2ccccc12	0	-0.4	-25	120	i	0.92	101
COc1ccc(S(=O)(=O)N(C)C)cc1NC(=O)[C@H](Cc1ccccc1)N1C(=O)c2ccccc2C1=O	10	0.4	x	x	i	0.97	101
O=CC1=C(N2CCOCC2)/C(=C\c2ccccc2)CC1	-7	x	x	x	i	0.98	99
Cc1ccc(CNCC(O)(c2ccccc2)c2ccc(F)cc2)cc1 (stereo not drawn)	-4	-2.6	x	x	x	x	104
CCC(c1nnnn1CCOC)N1CCN(Cc2ccccc2OC)CC1 (stereo not drawn)	21	-2.7	x	x	i	1.1	101
Cc1ccc(CNC(=O)Cn2c(=O)n(-c3ccccc3)c(=O)c3sccc32)cc1	-2	x	x	x	i	0.89	94
CCOC(=O)c1[nH]ncc1CN1CCC(Cc2cccc(OC)c2)(C(=O)OCC)CC1	x	x	x	x	i	1.1	106
CC1CCc2nc(NCCO)nc(C(F)(F)F)c2C1 (stereo not drawn)	7	-0.4	45	101	i	0.88	112
O=C(N/N=C/c1cccnc1)/C(=C\c1cccs1)NC(=O)c1ccccc1	0	-0.3	0	177	i	0.94	109
Cn1c(SCC(=O)N2CCc3ccccc32)nnc1C1CC1	-3	0.0	x	x	x	x	104
Cc1cc(N2C(=O)C3C4CC(C(Br)C4Br)C3C2=O)no1 (stereo not drawn)	0	0.4	38	129	i	1.1	98
CCOC(=O)N1CCN(C(=O)c2cccc(NC3=NC4CS(=O)(=O)CC4S3)c2)CC1 (stereo not drawn)	1	1.1	-27	99	i	1	94
Cc1ccc(C(=O)N2CCN(c3ccc(Cl)cc3)CC2)cc1	1	-2.7	53	97	i	0.81	100
O=C(COC(=O)C1CCC(=O)N1)Nc1ccc(Br)cc1 (stereo not drawn)	1	-1.1	x	x	i	0.98	106
CC1(C)COC(c2cccn2Cc2ccc(F)cc2Cl)=N1	-7	-2.8	-9	98	i	0.97	99
Cn1cnc([N+](=O)[O-])c1S(=O)(=O)c1cccc(Cl)c1	-4	-4.0	31	68	i	0.63	111
CC1CN(C(=O)Nc2cccc(C(F)(F)F)c2)CC(C)O1 (stereo not drawn)	3	x	x	x	i	1	111
Cc1nc(C(=O)NCC(=O)c2ccccc2)c(C(F)(F)F)o1	x	x	x	x	i	1.1	96
Cn1c(=O)n(C)c2cc(/C=N/NC(=O)c3cc4cc(Br)ccc4o3)ccc21	x	x	x	x	i	0.9	103
COCCCNC(=S)Nc1ccc(C)cc1	x	x	x	x	i	1	105
Cc1ccc2nc3c(cc(S(=O)(=O)c4ccccc4)c(=N)n3Cc3ccco3)c(=O)n2c1	1	x	-333	94	i	0.91	106
Cc1ccc(NC(=O)c2cccc(F)c2)cc1S(=O)(=O)N1CCCCCC1	-10	x	x	x	i	0.97	104
Cc1cc(C(=O)OCC(=O)NCc2ccco2)c(C)n1-c1ccccc1	-13	-1.0	x	x	i	0.83	158
Fc1ccccc1N1CCN(Cc2cnc(Cl)s2)CC1	4	x	18	78	i	1.2	97

Record cards (already shown). Order of values: PKD1 kinase inh, GALR2 agonist, Insulin prom inh, Insulin prom inh cell count, HSV augment, HSV augment primary fold, RGS16-Gao
`Cc1ccc2nc3c(cc(S(=O)(=O)c4ccccc4)c(=N)n3Cc3ccco3)c(=O)n2c1` in the list: 1, x, -333, 94, i, 0.91, 106
`Fc1ccccc1N1CCN(Cc2cnc(Cl)s2)CC1` in the list: 4, x, 18, 78, i, 1.2, 97
`COCCCNC(=S)Nc1ccc(C)cc1` in the list: x, x, x, x, i, 1, 105

More entries follow:
SMILES	PKD1 kinase inh	GALR2 agonist	Insulin prom inh	Insulin prom inh cell count	HSV augment	HSV augment primary fold	RGS16-Gao
Cc1cccc(NC2=CC(=O)OC(C)C2)c1 (stereo not drawn)	-6	-1.1	-39	126	i	0.95	91
COC(=O)[C@@]1(Cc2ccc(F)cc2)[C@@H]2[C@@H](CC(=O)[C@H]2CC(=O)C(=O)N(C)C)CN1C(=O)c1ccccc1	-4	-3.4	32	67	i	0.79	109
COc1ccc(C)cc1NC(=S)NC(C)c1ccc(OC)c(OC)c1 (stereo not drawn)	6	x	x	x	i	0.94	104
C=C(C)COc1ccc(-c2[nH]ncc2-c2ccc(Br)cc2)c(O)c1	0	-0.1	-50	71	i	0.62	86
CN(C)S(=O)(=O)N1CCN(S(=O)(=O)N(C)C)CC1	3	-0.8	-28	95	i	0.78	99
O=C(NCCN1C(=O)C2C3C=CC(C3)C2C1=O)N1CCCCC1 (stereo not drawn)	11	-0.9	x	x	i	0.88	96
CCn1c(C(C)NC(=O)c2cccs2)n[nH]c1=S (stereo not drawn)	7	-0.6	-63	102	i	0.91	96
CCOc1ccc(S(=O)(=O)Nc2cccc(OC)c2)cc1	-4	-2.4	7	80	i	0.92	106
CCOC(=O)N1CCC(=NNC(=O)COc2ccc(C#N)cc2)CC1	-8	-1.7	x	x	i	1	98
CC(C)NCC(=O)Nc1c2c(nc3ccccc13)CCC2	x	x	x	x	i	1.1	101
